Screens from PubChem BioAssay.
B2AR ag: human beta-2 adrenergic receptor agonism by FAP. P07550. Am2.2-beta2AR cells, FAP receptor internalization, flow cytometry; reference of the scale not given here. response, % (test concentration not listed). 340,000 compounds, 0.43% hits. AID 504454;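 active = response above a set limit, near 3 SD of response in nonfluorescent compounds, cut at about 42% in these data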;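 note: stock transfer was 100 nL into about 11 µL; a reference agonist was the positive control; negative values mostly stem from fluorescent compounds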
UCH37 inh: inhibitors of human deubiquitinating enzyme UCH37; inhibition, % (no concentration beside the values); purified proteasome/UCH37, Ub-AMC cleavage fluorescence; AID 588478; Q9Y5K5; 330,000 compounds, 0.33% hits;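 active = mean of two replicates above 20%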;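 note: 0% = compound-free wells with enzyme and 100% = wells lacking proteasome; stock transfer was 100 nL into about 20 µL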
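Test system – human UCH37 enzyme supplied as purified proteasome complex · Incubation – 30 min preincubation with enzyme, 25 min cleavage at room temperature · Detection – AMC fluorescence from Ub-AMC cleavage, excitation 355 nm, emission 460 nm · Benchmarks – no-proteasome wells (full inhibition) and compound-free wells (no inhibition)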
HNF4A DNA FP: change in binding of human HNF4 alpha to DNA; P41235; HNF4a-FITC DNA binding, fluorescence polarization, 1 h; activity change, % at 10 µM; 360,000 compounds, 0.3% hits; in the data active = activity change above about 30%, passing the limit was not always enough;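 note: controls were the assay level and a saturating level of protein; the project sought stronger binding though the title names inhibitors; some compounds called inactive have numbers as strong as hits; positive values seem to mean higher polarization but the record does not say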
Target sequence (P41235 whole entry, looked up): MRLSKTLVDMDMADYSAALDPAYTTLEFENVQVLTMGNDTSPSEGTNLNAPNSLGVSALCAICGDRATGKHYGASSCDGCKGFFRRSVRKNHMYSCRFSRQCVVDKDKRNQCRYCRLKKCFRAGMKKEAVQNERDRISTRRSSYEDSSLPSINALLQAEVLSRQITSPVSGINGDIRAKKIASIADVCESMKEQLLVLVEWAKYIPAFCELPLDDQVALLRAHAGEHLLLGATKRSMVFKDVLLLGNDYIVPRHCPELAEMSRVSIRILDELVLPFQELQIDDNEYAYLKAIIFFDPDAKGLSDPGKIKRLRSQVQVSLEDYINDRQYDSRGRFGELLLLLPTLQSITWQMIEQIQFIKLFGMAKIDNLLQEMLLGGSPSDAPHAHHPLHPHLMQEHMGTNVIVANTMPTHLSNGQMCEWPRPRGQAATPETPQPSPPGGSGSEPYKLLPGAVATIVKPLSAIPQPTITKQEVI
Ecoli growth: inhibitors of Escherichia coli growth; OD600, 23 h; stronger effect = lower value; OD600 absorbance (concentration not given with the values); 330,000 compounds, 0.21% hits; AID 1053175;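 active = OD600 absorbance below the run mean of sample wells minus 3.6 SD, in any replicate, cut at about 0.56 in these data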;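 note: stock transfer was 300 nL into about 60 µL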
FGF22 binding: shifts melting point of recombinant human FGF22. Q9HCT0. recombinant FGF22 thermal shift, SYPRO orange fluorescence; percent of sucrose octasulfate shift, DMSO zero. calls only at 9.99 µM. 340,000 compounds, 1.5% hits. AID 651658;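 active = melting point raised past a set limit in the mean and every replicate; three in four hits are not shown here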
Target sequence (Q9HCT0 whole entry, looked up): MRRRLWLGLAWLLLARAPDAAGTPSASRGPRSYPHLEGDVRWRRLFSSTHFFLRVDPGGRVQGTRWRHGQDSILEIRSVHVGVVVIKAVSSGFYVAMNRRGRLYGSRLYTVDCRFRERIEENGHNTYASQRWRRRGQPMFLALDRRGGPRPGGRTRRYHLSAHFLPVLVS
LANA-H2B inh: blocks KSHV LANA binding to histone H2A/H2B. Q9QR71. cell-free LANA-H2A/H2B peptide, fluorescence polarization. inhibition, % (concentration not given with the values). 320,000 compounds, 0.6% hits; in the data active = inhibition mostly above about 10%, no sharp cut-off; inactive = mostly below about 6.7%;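 note: stock transfer was 7.5 nL into about 10 µL; 0% = median of vehicle wells and 100% = median of positive control wells; one replicate is shown; the record names a cut of 25% in any replicate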
ALR inh: inhibitors of human sulfhydryl oxidase ALR | P55789 | purified ALR, DTT oxidation, H2O2 HRP-luminol luminescence | inhibition, % (no concentration beside the values) | 290,000 compounds, 3.8% hits;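 active = mean and each replicate at 75% or more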;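 note: stock transfer was 7.5 nL into about 7.5 µL; 0% = neutral wells and 100% = wells with inactivated enzyme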
Target sequence (P55789 whole entry, looked up): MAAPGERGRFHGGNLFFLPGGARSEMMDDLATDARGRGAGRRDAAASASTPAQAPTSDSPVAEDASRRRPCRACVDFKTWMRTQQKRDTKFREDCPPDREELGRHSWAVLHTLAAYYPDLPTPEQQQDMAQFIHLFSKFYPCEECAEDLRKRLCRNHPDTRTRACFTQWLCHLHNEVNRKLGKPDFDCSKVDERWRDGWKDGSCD
Starred values were filed as active, the others as inactive; i = inactive; . = not tested or not shown; + = active, no number.

cpd	mol	B2AR ag	FGF22 binding	HNF4A DNA FP	ALR inh	UCH37 inh	LANA-H2B inh	Ecoli growth
1	CCOc1ccc(S(=O)(=O)N(C)CC(=O)NCc2ccco2)cc1	0	i	2.3	.	1.9	3.2	0.66
2	CC1CC(C)(C)NC(=O)O1 (stereo unspecified)	-2	.	1.7	-6	3.6	2.9	.
3	OC(c1ccccc1)c1cccnc1 (stereo unspecified)	-4	i	1.0	0	3.5	-4.3	0.67
4	C=CCN(C)NC(=S)Nc1ccccc1	-2	.	-5.0	55	1.0	1.0	0.67
5	CC(=O)c1ccc(S(=O)(=O)N(CCCO)Cc2cc3cc(C)ccc3[nH]c2=O)cc1	-13	i	-0.1	.	5.3	0.2	0.65
6	CCCOc1ccc(N2C(=O)CC(NCCNc3ccc(S(=O)(=O)CC)cc3)C2=O)cc1 (stereo unspecified)	-4	.	0.6	0	1.6	2.2	0.74
7	NC1=NN(c2cccc(C(=O)O)c2)C(=O)C1	-6	.	-3.7	18	5.6	4.6	0.7
8	CC(=O)OCC(CCn1cnc2cnc(N)nc21)COC(C)=O	.	.	.	-14	-0.2	0.4	0.72
9	Cc1cc(NS(=O)(=O)c2ccc(NC(=O)Cc3ccc([N+](=O)[O-])cc3)cc2)nc(C)n1	2	i	-0.3	57	3.3	2.3	0.69
10	COc1ccc(/C=C2\Sc3ccc(C(=O)NC4CC4)cc3N(C)C2=O)cc1OC	5	i	0.4	0	4.7	1.4	0.7
11	COc1ccc(S(=O)(=O)N(C)C)cc1NC(=O)c1ccc2c(c1)OCCO2	6	i	5.7	.	0.8	.	0.71
12	CCOC(=O)c1sc(SC)c2c1CCCC2=O	3	i	0.3	2	5.5	2.5	0.66
13	COc1ccc(C(=O)CCC(C)(C)[N+](=O)[O-])cc1OC	-3	i	-1.7	-2	1.1	1.6	0.72
14	COC(=O)C[C@H](NC(=O)Cn1cnc(C(=O)Nc2ccc(C)c(C)c2)n1)C(=O)OC	8	i	4.9	.	-0.4	.	0.67
15	O=C1CC(/C=C/c2ccc([N+](=O)[O-])cc2)=Nc2ccccc2N1	0	i	3.9	6	11	-3.6	0.67

Retrieved by compound from the entries so far (2):
cpd	mol	B2AR ag	FGF22 binding	HNF4A DNA FP	ALR inh	UCH37 inh	LANA-H2B inh	Ecoli growth
11	COc1ccc(S(=O)(=O)N(C)C)cc1NC(=O)c1ccc2c(c1)OCCO2	6	i	5.7	.	0.8	.	0.71
3	OC(c1ccccc1)c1cccnc1 (stereo unspecified)	-4	i	1.0	0	3.5	-4.3	0.67

Next entries follow.
cpd	mol	B2AR ag	FGF22 binding	HNF4A DNA FP	ALR inh	UCH37 inh	LANA-H2B inh	Ecoli growth
16	O=C(CO/N=C/c1ccccc1OC(F)F)NCc1ccco1	9	i	2.0	3	.	3.6	.
17	O=[N+]([O-])c1ccc(OCn2cncn2)cc1	1	i	0.7	3	-0.9	1.6	0.7
18	NC(=S)N/N=C/c1cc([N+](=O)[O-])ccc1Cl	-5	i	3.8	-2	.	1.4	.
19	O=C(O)c1ccc(NC(C(=O)c2ccccc2)c2ccccc2)cc1 (stereo unspecified)	6	i	0.8	.	2.7	.	0.68
20	CC(=O)Nc1ccc(NC(=O)CSc2nc(=O)n3cccc(C)c3n2)cc1	-1	.	0.3	-7	2.9	-5.7	0.68
21	CC(=O)c1ccc(NC(=O)N2C3CCC2CC(O)(c2cccnc2)C3)cc1 (stereo unspecified)	-3	i	1.4	-4	2.7	124*	0.72
22	Cc1cccc(C(C)C)c1NC(=O)CSc1nncn1C	0	i	0.2	0	-1.3	-1.1	0.7
23	CC(C)CSc1nnc2[nH]c(=O)cc(N)n12	5	.	0.3	0	0.7	2.7	0.74
24	Cc1nc2c(C)cccc2cc1C(=O)N/N=C/c1ccc(O)cc1	0	+	1.4	99*	.	-0.5	.
25	O=C(N/N=C/c1cn(-c2ccccc2)nc1-c1cccs1)c1ccccc1F	23	.	-4.2	-5	.	-5.1	.
26	O=C(CNC(=O)c1ccccc1)NCC(c1ccco1)N1CCCC1 (stereo unspecified)	0	i	0.2	.	2.2	0.9	0.7
27	Cc1cc(C)c(S(=O)(=O)/N=C2\C=C(Nc3ccc(C(=O)O)cc3)C(=O)c3ccccc32)c(C)c1	14	i	-0.6	.	.	5.4	.
28	O=c1sc2ccccc2n1CCOc1ccccc1	-1	.	2.3	-2	3.2	-0.7	0.65
29	Cc1ccc(-c2csc3nc4cc(C(N)=O)ccc4c(=O)n23)cc1	15	i	1.0	19	-2.8	-0.7	0.66
30	CC1c2cc3c(cc2CCN1CC(=O)Nc1ccc(S(=O)(=O)N2CCCC2)cc1)OCCCO3 (stereo unspecified)	3	i	-2.5	-3	-1.8	-3.5	0.66
31	Cc1cccc(C2c3[nH]c4ccccc4c3CCN2C(=O)c2ocnc2C)n1 (stereo unspecified)	-9	i	-0.3	6	2.1	-0.6	0.68
32	Cc1cc(C(=O)NNc2ccc(F)cc2F)no1	-10	i	-3.4	98*	.	1.6	.
33	C=CCn1c(SCc2csc(-c3ccc(Cl)cc3)n2)nnc1-c1ccccc1OC	-30	i	-0.8	81*	1.5	0.3	0.68
34	O=[N+]([O-])c1ccc2nccn2c1	-3	.	0.6	-6	3.0	1.3	0.71
35	O=C1CC(NC(=O)C(F)(F)F)c2cc3c(cc21)OCO3 (stereo unspecified)	4	i	-3.0	6	2.3	-2.8	0.7
36	Cc1cc(C(=O)NCc2cccs2)no1	1	.	1.6	-12	-0.9	0.2	0.71
37	Cc1ccc(NC(=O)CCc2ccc(C)o2)c(C)c1	4	i	-1.9	7	3.5	0.5	0.69
38	CCOC(=O)/C(=C/c1ccc(OC(F)F)cc1)C1=Nn2c(nnc2-c2ccc(Cl)cc2)SC1	27	i	3.7	.	2.0	.	0.63
39	CCC(CC)C(=O)c1c[nH]c(C(=O)NCc2cccs2)c1	15	i	4.1	-6	1.1	-4.7	0.71
40	Cc1c(Cl)cccc1NC(=S)NCCC(c1ccccc1)c1ccccc1	-7	.	-0.4	-8	-0.2	0.5	0.72
41	Cc1cc(C(=O)Nc2ccccc2)oc(=O)c1	-1	i	2.9	3	3.8	2.6	0.64
42	COCc1nnc(NC(=O)C2CCN(C(=O)c3ccco3)CC2)s1	-4	i	0.7	-2	1.7	-4.4	0.69
43	CN1CCN(c2nc(-c3ccccc3Cl)nc3ccccc23)CC1	-1	i	-0.4	-21	2.7	-8.2	0.68
44	COC(=O)c1sc(NC(=S)NC(=O)c2ccccc2Cl)nc1C	2	i	0.1	-5	-0.4	-1.5	0.68
45	Oc1c(CN2CCOCC2)ccc2ccccc12	14	i	-3.7	.	-10	.	0.71
46	Cc1ccc2c(c1)C(c1ccc(O)cc1)(c1ccc(O)cc1)C(=O)N2C	-3	i	-0.4	3	3.9	1.4	0.69
47	CCCCC(c1nnnn1C1CCCC1)N1CCN(C(=O)c2ccco2)CC1 (stereo unspecified)	1	.	-1.1	-25	5.6	1.2	0.71
48	Cc1cc(C(F)(F)F)c2c(C)nn(CCc3nn[nH]n3)c2n1	-5	.	-1.0	2	-14	5.1	0.71
49	COc1ccc(C=CC(=O)c2ccc(OC)c(OC)c2O)cc1OC	17	i	-4.4	.	2.5	.	0.68
50	CN(Cc1ccccc1)S(=O)(=O)c1ccc(Cl)c(C(=O)OCC(N)=O)c1	-5	i	1.7	-1	-0.1	-5.1	0.62
51	O=C(CSc1nnc(CNC(=O)c2ccccc2F)o1)NCCc1ccccc1	5	.	1.2	-2	-0.4	1.9	0.7
52	CCCCc1c(O)c2ccccc2[nH]c1=O	1	.	2.4	.	-4.7	4.9	0.72
53	COc1cc(CNC(=O)c2cnccn2)cc(OC)c1	9	i	2.2	.	-1.1	.	0.61
54	COc1ccc(-c2csc(CCn3nc(C)cc3C)n2)cc1OC	-4	i	-0.2	.	1.2	0.3	0.71
55	Cc1ccc(S(=O)(=O)N2CCCCC2)cc1NC(=O)CSc1ncn[nH]1	-1	i	-4.4	-2	2.4	1.4	0.67
56	CCc1cc(C(=O)NC2CCCc3c2cnn3-c2cccc(C)c2C)n(C)n1 (stereo unspecified)	.	i	.	2	.	0.0	.
57	O=C(Nc1nc2ccsc2c(=O)s1)C1CCC1	0	i	-0.2	.	4.8	0.3	0.62
58	Cc1cccc(NC(=O)C2C3C=CC4(O3)C2C(=O)N(CCCN2CCCC2)C4C(=O)NC2CCCC(C)C2C)c1 (stereo unspecified)	-4	i	-1.0	0	3.8	1.5	0.67
59	CC(C)NC(=O)CN1CCC(c2ccccc2)C(O)C1 (stereo unspecified)	0	i	-1.7	-6	4.3	-3.3	0.71
60	COc1ccc(NC(=S)NCC2CCCO2)c(OC)c1 (stereo unspecified)	9	.	-0.7	-1	0.4	-7.6	0.72
61	Cc1ccc(S(=O)(=O)Nc2ccc3nc(C)sc3c2)cc1	-3	.	-0.3	-8	-4.3	4.5	0.73
62	O=C1OC(c2cccs2)=N/C1=C\c1ccc(-c2cccc(Cl)c2)o1	9	.	12	41	-4.5	0.0	0.66
63	Cc1ccc(-c2nnc(Nc3ccc(C(=O)N(C)C)cc3)c3ccccc23)cc1S(=O)(=O)NC(C)(C)CO	0	i	3.8	-10	0.2	1.8	0.68
64	O=C(CC1C(=O)N(c2ccccc2)C(=O)N1Cc1ccco1)Nc1ccccc1 (stereo unspecified)	7	i	2.2	2	2.6	1.8	0.69
65	Cc1nn(S(=O)(=O)c2ccc(Br)cc2)c(C)c1S(=O)(=O)N1CCOCC1	3	i	-2.6	1	2.3	0.8	0.7
66	O=C(O)CN1C(=O)C(=O)N(Cc2c(F)cccc2Cl)C1=O	-12	i	-1.2	1	2.0	4.2	0.72
67	Cc1ccc(C(=O)CSc2nnc(-c3cccnc3)n2N)cc1	-18	.	2.1	-7	3.6	-1.0	0.65
68	CCn1c(SCC(=O)N/N=C/C=C/c2ccccc2[N+](=O)[O-])nnc1-c1ccc(Cl)cc1	.	i	.	8	.	5.4	.
69	O=C(Nc1ccccc1O)c1cc(S(=O)(=O)N2CCOCC2)c(Cl)cc1Cl	0	.	-1.2	90*	5.6	1.3	0.66
70	O=C(Nc1ccccc1)c1ccccc1OCc1ccc(F)cc1	-9	i	0.3	-10	1.1	3.5	0.67
71	CCn1c(N2CCN(C(=O)Nc3ccc(F)cc3)CC2)nc2ccccc21	-3	.	-1.1	-4	3.3	-1.3	0.69
72	O=C(COc1cccc2c1CCNC2=O)Nc1cccc(F)c1	-3	i	-1.0	0	0.6	-5.8	0.6
73	COC(=O)CSc1nnc(CNC(=O)c2cc(OC)c(OC)c(OC)c2)n1C	1	.	28*	-3	-1.5	1.0	0.71
74	c1ccc(CNc2nc(NCc3ccccc3)c3ccccc3n2)cc1	72*	.	7.3	9	-48	-4.7	0.44*

The list is partial; the hit share may differ from the screen's.
